VDR inhibitor – inhibitors of human vitamin D receptor. P11473. VDR-SRC2-3 peptide fluorescence polarization, 2 h. Potency, µM, inactives show max response, negative = inhibition, actives largely listed as inhibitors. 400,000 compounds, 0.93% hits; active means well fitted inhibition curve with a large enough effect; inconclusive means small, poorly fitted or top-dose-only effect, or another doubt; inactive means no such curve, though single readings can be large or run the other way; further: series mostly up to about 120 µM
Target sequence (P11473 whole entry, looked up): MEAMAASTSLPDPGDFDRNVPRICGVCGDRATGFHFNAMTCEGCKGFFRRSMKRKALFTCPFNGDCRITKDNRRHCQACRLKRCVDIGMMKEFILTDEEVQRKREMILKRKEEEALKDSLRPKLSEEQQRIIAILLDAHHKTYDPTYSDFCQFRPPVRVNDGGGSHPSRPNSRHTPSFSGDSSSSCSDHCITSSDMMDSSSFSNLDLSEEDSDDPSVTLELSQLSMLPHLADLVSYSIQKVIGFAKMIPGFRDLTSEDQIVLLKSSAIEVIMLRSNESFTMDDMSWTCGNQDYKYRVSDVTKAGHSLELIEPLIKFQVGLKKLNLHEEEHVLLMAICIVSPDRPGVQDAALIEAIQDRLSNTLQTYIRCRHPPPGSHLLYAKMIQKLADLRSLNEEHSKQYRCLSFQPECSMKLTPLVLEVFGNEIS
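VDR–SRC2-3 interaction, FP format. Cmpds 23 nl via pintool, brief spin, 2 h ambient incubation.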
The depositor's hits bear a star. On the % scale 0 is the no-effect control and ±100 the full control effect; potency means the concentration at half of the fitted maximal effect.

How did COc1nc(OCC#N)nc(N(C)C)n1 do in these assays?
VDR inhibitor: 13%

What do the screens show for `CC(C)(C)c1ccc(S(=O)(=O)Nc2noc3ccccc23)cc1`?
VDR inhibitor: -5%

Results for CC(C)(CN1CCNCC1)NS(=O)(=O)c1ccc(Cl)cc1 ?
VDR inhibitor: -7%

What do the screens show for `Cc1cc(SCC(=O)c2cccs2)nc2c(C)cccc12`?
VDR inhibitor: 3%

What do the screens show for `O=C(NC1CC1)C1=C[C@H](c2ccc3c(c2)OCO3)C[C@H](OCc2ccc(CO)cc2)O1`?
VDR inhibitor: -28%

What do the screens show for `COc1ccc(S(=O)(=O)Nc2cccc(SC)c2)cc1OC`?
VDR inhibitor: -12%

Results for CCN(CC)S(=O)(=O)c1ccc(N/N=C/c2cc(OC)c(OC)cc2OC)nc1 ?
VDR inhibitor: 6%

How did CCC(C)(C)NC(=O)c1cc([N+](=O)[O-])ccc1N1CCCCC1 do in these assays?
VDR inhibitor: inconclusive

Results for Cc1ccc(NS(=O)(=O)c2cn(C)c(=O)n(C)c2=O)cc1C ?
VDR inhibitor: 0%

What do the screens show for `CCCCn1nc(C(=O)NCC(=O)Nc2c(C)cccc2C)c2ccccc2c1=O`?
VDR inhibitor: -16%

What do the screens show for `O=C(NCCCCc1ccccc1)c1ccccc1F`?
VDR inhibitor: -5%

How did O=C(NCc1cc(C(F)(F)F)ccc1F)C1CCC(=O)N(C2CCCCCC2)C1 (stereo not drawn) do in these assays?
VDR inhibitor: -4%

What do the screens show for `CCCC(=O)Nc1ccc(C(=O)COC(=O)c2c(C)noc2C)cc1`?
VDR inhibitor: 22%

What do the screens show for `O=C(CSc1n[nH]c(=O)n1-c1ccccc1)Nc1ccccc1`?
VDR inhibitor: 17%

What do the screens show for `CC(C)(C)c1ccc(S(=O)(=O)N2CCC(c3ccncc3)CC2)cc1`?
VDR inhibitor: 0%

How did OCCN1CCN(c2nc(-c3ccccc3O)nc3ccccc23)CC1 do in these assays?
VDR inhibitor: -4%

How did FCCCOc1ccc(-c2nccc(-c3ccc(F)cc3)n2)cc1 do in these assays?
VDR inhibitor: -3%

Results for N#Cc1ccc(CN2C=NS(=O)(=O)c3ccccc32)cc1 ?
VDR inhibitor: 20%

How did O=C(NNC(=S)Nc1ccccc1)c1ccc(O)cc1 do in these assays?
VDR inhibitor: -15%

Results for O=C(Nc1ccc2c(c1)OCCO2)C1CCN(S(=O)(=O)Cc2ccccc2)CC1 ?
VDR inhibitor: -2%

How did Cn1c(CNC(=O)c2ccc(Cl)c(Cl)c2)nnc1SCC(=O)Nc1sc2c(c1C#N)CCCC2 do in these assays?
VDR inhibitor: 7%

Results for C=CCC1(Cl)C(=O)C(Cl)=C(N2CCOCC2)C1(OC)OC (stereo not drawn) ?
VDR inhibitor: -3%

What do the screens show for `O=C1OCCC1Sc1nc2ccccc2n1Cc1ccccc1` (stereo not drawn)?
VDR inhibitor: -15%

What do the screens show for `Cn1c(=Nc2ccccc2)sc2ccccc21`?
VDR inhibitor: 6%

How did CC(=O)OC1CC[C@@]2(C)C(=CC[C@H]3[C@@H]4CC[C@H](C(C)=O)[C@@]4(C)CC[C@@H]32)C1 (stereo partly drawn) do in these assays?
VDR inhibitor: 11%

Results for O=S(=O)(c1ccc(-c2cc(C(F)(F)F)on2)s1)N1CCN(c2ccc(F)cc2)CC1 ?
VDR inhibitor: 10%

Results for CN1C(=O)NC(NC(=O)c2cccs2)(C(F)(F)F)C1=O (stereo not drawn) ?
VDR inhibitor: 0%

How did O=C1c2ccccc2C(=O)N1CCCOCc1c[nH]c(=O)[nH]c1=O do in these assays?
VDR inhibitor: 4%

Results for COc1ccc(-c2nc(CN3CCC(C(=O)NC4CCCc5ccccc54)CC3)c(C)o2)cc1OC (stereo not drawn) ?
VDR inhibitor: -5%

How did CCOC(=O)C1CCN(C(=O)c2cn(C)c(=O)c3cc(OC)c(OC)cc23)CC1 do in these assays?
VDR inhibitor: 14%

What do the screens show for `COc1ccccc1/C=N/NC(=O)C(=O)N1CCN(c2ccccc2OC)CC1`?
VDR inhibitor: -14%

Results for CCOc1ccc(NS(=O)(=O)c2ccc(NS(=O)(=O)c3ccc(SC)cc3)cc2)cc1 ?
VDR inhibitor: -9%

What do the screens show for `CC1=CC(=O)C=C(C)C1=NOc1ccc([N+](=O)[O-])cc1`?
VDR inhibitor: 5%

Results for O=S(Cc1cc(Oc2ccccc2)nc(-c2ccccc2)n1)c1ccccc1 (stereo not drawn) ?
VDR inhibitor: -10%

Results for Cn1c(NC(=O)/C=C/c2ccco2)cc(=O)n(C)c1=O ?
VDR inhibitor: 7%

How did Cc1cc(C)cc(OCC(=O)Nc2nc3c(s2)CC(C(C)(C)C)CC3)c1 (stereo not drawn) do in these assays?
VDR inhibitor: 13%

What do the screens show for `O=C(NCc1ccco1)C(=O)N1CCCC1`?
VDR inhibitor: -11%

What do the screens show for `COc1ccc(CCNC(=O)Cc2c(C)c3cc4c(C(C)(C)C)coc4c(C)c3oc2=O)cc1`?
VDR inhibitor: 11%

Results for CC1Cc2ccccc2N1Cc1nc2cc(C(F)(F)F)ccc2c(=O)[nH]1 (stereo not drawn) ?
VDR inhibitor: 1%

How did FC(F)(F)COCC(F)(F)F do in these assays?
VDR inhibitor: 15%

What do the screens show for `CCC1CCCCN1S(=O)(=O)c1ccc(NC(=O)CSc2ncccc2C(=O)O)cc1` (stereo not drawn)?
VDR inhibitor: -5%

Results for CCCn1c(=O)c2c(C(=O)OCC)cc(-c3ccco3)nc2n(CCC)c1=O ?
VDR inhibitor: -1%

Results for COc1ccc(OCCNC2CCCC2)cc1 ?
VDR inhibitor: -30%

How did CCOC(=O)c1cnn(Cc2ccccc2)c1N do in these assays?
VDR inhibitor: -10%

How did CCn1ncc(Br)c1C(=O)Nc1nccs1 do in these assays?
VDR inhibitor: -6%

Results for Cc1cc[n+](CC(=O)Nc2cc(C(F)(F)F)ccc2Cl)cc1 ?
VDR inhibitor: -1%

How did O=c1[nH]c(/C=C/c2ccc(OC(F)F)cc2)nc2c1cnn2-c1ccccc1 do in these assays?
VDR inhibitor: -7%

What do the screens show for `O=C(COC(=O)c1ccc[nH]c1=O)NC1CCCc2ccccc21` (stereo not drawn)?
VDR inhibitor: -19%

How did Cc1nc2c(Br)c3nc(C(F)(F)F)[nH]c3c(Br)c2[nH]1 do in these assays?
VDR inhibitor: 4%

Results for Cc1c(C(=O)Nc2nnc(SCc3ccccc3Cl)s2)cccc1[N+](=O)[O-] ?
VDR inhibitor: -17%

What do the screens show for `Cc1ccc(CNc2ccc(S(=O)(=O)N3CCOCC3)cc2[N+](=O)[O-])cc1`?
VDR inhibitor: -3%

What do the screens show for `CN(C)/C=C/C(=O)/C=C/c1ccc(Cl)cc1`?
VDR inhibitor: -12%

Results for CCOc1ccc(CCNC(=O)CCCc2nnc3n(CCCOC)c(=O)c4sccc4n23)cc1 ?
VDR inhibitor: 0%

How did O=C(CSc1nc2ccc(NC(=O)CSc3nnnn3-c3ccccc3)cc2s1)Nc1ccccc1 do in these assays?
VDR inhibitor: -15%

What do the screens show for `COc1ccc(N=Cc2c(O)c3ccccc3oc2=O)cc1`?
VDR inhibitor: 8%

How did CC(C)(C)OC(=O)C[C@H]1C/C=C\C[C@H](CC(=O)NCCO)C(=O)N2CCC[C@@H]2COC1=O do in these assays?
VDR inhibitor: -2%

What do the screens show for `O=C(NCCc1ccccc1)c1ccc(CS(=O)Cc2cccc(Cl)c2)o1` (stereo not drawn)?
VDR inhibitor: 7%

Results for COc1ccccc1NC(=O)COc1ccc(C(=O)OCC(=O)NC(C)(C)C)cc1OC ?
VDR inhibitor: 5%

Results for COc1ccc(C)cc1NC(=O)Nn1cnnc1 ?
VDR inhibitor: 10%

Results for Cc1oc(C(C)(C)C)cc1C(=O)NC1CCN(Cc2ccccc2)CC1 ?
VDR inhibitor: -21%

Results for Cc1cnc(C(=O)OCC(=O)c2ccc(-c3ccccc3)cc2)cn1 ?
VDR inhibitor: -17%

How did O=C(NCCc1ccccc1)C1CC1 do in these assays?
VDR inhibitor: -6%

How did CN(C)c1nc(SCC(=O)Nc2ccccc2)nc(N2CCOCC2)n1 do in these assays?
VDR inhibitor: 0%

How did O=C(NCCC1CCCCN1S(=O)(=O)c1ccc(Cl)cc1)C(=O)NCc1cccnc1 (stereo not drawn) do in these assays?
VDR inhibitor: 8%

How did O=C(CSc1ncccn1)N/N=C/c1cccc([N+](=O)[O-])c1 do in these assays?
VDR inhibitor: -16%

Results for C=CC[C@]12CCc3ccccc3C1N(c1ccc(C(=O)OCC)cc1)C2=O (stereo partly drawn) ?
VDR inhibitor: -15%

How did Fc1ccc(-c2[nH]ncc2CN2CCN(c3ccc(F)cc3)CC2)cc1 do in these assays?
VDR inhibitor: -3%

What do the screens show for `Nc1ccccc1C(=O)NCCCN1CCOCC1`?
VDR inhibitor: -7%

What do the screens show for `Cc1ccc(NC2=Nc3ccccc3CS2)cc1`?
VDR inhibitor: -6%

What do the screens show for `O=C(O)c1cccc(Cn2cc(Br)cn2)c1`?
VDR inhibitor: 7%

How did COc1ccccc1-c1cc2nc(C)c(CCC(=O)NCCc3cccc(C)c3)c(C)n2n1 do in these assays?
VDR inhibitor: -4%

Results for CC1=NNC(=O)C1CC(=O)N/N=C(\C)c1ccco1 (stereo not drawn) ?
VDR inhibitor: -6%

Results for Cc1cccn2c(=O)c(/C=C(\C#N)C(=O)NC3CCS(=O)(=O)C3)c(Oc3ccc(F)cc3)nc12 (stereo not drawn) ?
VDR inhibitor: 20µM*

Results for Cc1nnc(SCC(=O)NC2CCCC(C)C2C)n1N (stereo not drawn) ?
VDR inhibitor: -7%

What do the screens show for `COc1cc(C(=O)NC(=S)NCc2ccco2)cc(OC)c1OC`?
VDR inhibitor: 9%

What do the screens show for `CC(=O)Nc1cccc(OCCOc2cccc([N+](=O)[O-])c2)c1`?
VDR inhibitor: -26%

Results for OC(c1ccccc1)c1nccn1Cc1ccccc1 (stereo not drawn) ?
VDR inhibitor: -1%

Results for Oc1ccccc1CNc1ccc(OC(F)(F)F)cc1 ?
VDR inhibitor: 6%

How did O=C(Cc1cccc2ccccc12)N1CC[C@@]2(O)CCCC[C@H]2C1 do in these assays?
VDR inhibitor: 20%

How did CCc1nnc(NC(=O)c2ccc(S(=O)(=O)N3CCCC3)cc2)s1 do in these assays?
VDR inhibitor: 6%

What do the screens show for `COc1ccc(-c2nnnn2C(C)C)cc1`?
VDR inhibitor: -8%

Results for COC(=O)/C(=C\c1ccc([N+](=O)[O-])o1)NC(=O)c1ccccc1 ?
VDR inhibitor: -1%

How did FC(F)(F)c1cccc(N2CCN(c3nc4ccccc4n4cnnc34)CC2)c1 do in these assays?
VDR inhibitor: -2%

Results for CC1(OC(=O)C2CCCC2)C(=O)C=C2C=C(C3CC3)OC=C2C1=O (stereo not drawn) ?
VDR inhibitor: inconclusive

What do the screens show for `CCCOc1ccc(C(=O)Nc2ccc3oc(-c4ccncc4)nc3c2)cc1`?
VDR inhibitor: -12%

What do the screens show for `CCCn1nnc(NC(=O)COc2ccc(Cl)cc2)n1`?
VDR inhibitor: 16%

Results for CC(=O)Nc1ccc(NC(=O)C(C)OC(=O)CNS(=O)(=O)/C=C/c2ccc(C)cc2)cc1 (stereo not drawn) ?
VDR inhibitor: -19%

What do the screens show for `O=C(COC(=O)/C=C/c1cccc(C(F)(F)F)c1)NC1CCS(=O)(=O)C1` (stereo not drawn)?
VDR inhibitor: -14%

How did COCCn1c(=O)[nH]c2cc(C(=O)N3CCN(c4cccc(C(F)(F)F)c4)CC3)ccc2c1=O do in these assays?
VDR inhibitor: 6%

How did C=C(C)COc1cc2oc(=O)c(CC(=O)N3C[C@H]4C[C@@H](C3)c3cccc(=O)n3C4)c(C)c2cc1Cl do in these assays?
VDR inhibitor: -7%

Results for OCCN1CCN(c2nc(N3CCCCC3)nc(N3CCCCC3)n2)CC1 ?
VDR inhibitor: 4%

Results for CCOc1ccc(/C=C/C(=O)Nc2ccc3[nH]c(=O)[nH]c3c2)cc1 ?
VDR inhibitor: -8%

How did Cn1c(SCC(=O)NCC2CCCO2)nnc1-c1cccc(NC(=O)c2ccccc2F)c1 (stereo not drawn) do in these assays?
VDR inhibitor: 6%

Results for O=C(CCN1C(=O)c2cccc3cccc(c23)C1=O)NCc1cccnc1 ?
VDR inhibitor: 12%

What do the screens show for `COc1ccc(C(=O)NCCn2ccc3ccccc32)cc1OC`?
VDR inhibitor: 2%

Results for COC(=O)c1sccc1NC(=O)Nc1cccc(C(C)=O)c1 ?
VDR inhibitor: 12%

How did COc1cc(CN2CCNC(=O)C2CC(=O)N(C)CCCN2CCOCC2)cc(OC)c1 (stereo not drawn) do in these assays?
VDR inhibitor: 28%

Results for Brc1ccccc1OCCN1CCCC1 ?
VDR inhibitor: -5%

How did CCn1c2ccccc2c2cc(NC(=O)N3CCOCC3)ccc21 do in these assays?
VDR inhibitor: -5%

How did COCCn1c(SC(C)C(=O)Nc2ccc3c(c2)OCCO3)nc2ccccc2c1=O (stereo not drawn) do in these assays?
VDR inhibitor: -1%

Results for Cc1ccc2c(c1)N(Cc1ccncc1)C(=O)C(C)O2 (stereo not drawn) ?
VDR inhibitor: -1%

In the list so far, these contain bromine.
How did CCn1ncc(Br)c1C(=O)Nc1nccs1 do in these assays?
VDR inhibitor: -6%

How did Cc1nc2c(Br)c3nc(C(F)(F)F)[nH]c3c(Br)c2[nH]1 do in these assays?
VDR inhibitor: 4%

What do the screens show for `O=C(O)c1cccc(Cn2cc(Br)cn2)c1`?
VDR inhibitor: 7%

Results for Brc1ccccc1OCCN1CCCC1 ?
VDR inhibitor: -5%

Of the compounds above, these have a cyano group.
How did COc1nc(OCC#N)nc(N(C)C)n1 do in these assays?
VDR inhibitor: 13%

Results for N#Cc1ccc(CN2C=NS(=O)(=O)c3ccccc32)cc1 ?
VDR inhibitor: 20%

How did Cn1c(CNC(=O)c2ccc(Cl)c(Cl)c2)nnc1SCC(=O)Nc1sc2c(c1C#N)CCCC2 do in these assays?
VDR inhibitor: 7%

Results for Cc1cccn2c(=O)c(/C=C(\C#N)C(=O)NC3CCS(=O)(=O)C3)c(Oc3ccc(F)cc3)nc12 (stereo not drawn) ?
VDR inhibitor: 20µM*

Some of the compounds tested (hit frequency here may not be typical).
